# High-throughput results as filed in PubChem BioAssay.
# RE007 growth inh: less growth of the S. pombe RE007 Vpr strain; S. pombe RE007 Vpr strain, BacTiter-Glo ATP luminescence, 24 h; control for the full effect not named in the record; Potency, µM (highest dose often 92.2 µM), inactives show top-dose activity change, negative = less growth; hit rate 0.21% among 360,000; active = well fitted falling curve with a large enough effect; inconclusive = small, poorly fitted or top-dose-only effect; inactive = no such curve, though single readings can be large or run the other way;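 note: % is set by controls: 0 for no effect and ±100 for the full control effect; nearly all actives have a fitted effect of over 50% in size; the assay follows cell death caused by Vpr and the record does not say whether a fall means rescue or toxicity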
#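 Fission yeast strain RE007, carrying one chromosomally integrated HIV-1 vpr copy, was seeded at OD 0.01 in PMG+AL medium with 23 nL pinned compound. After 24 h at 30 °C and 99% humidity, viability was read by BacTiter-Glo luminescence.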
# Cruzain inh Det: cruzain (T. cruzi) inhibition with detergent. hit rate 0.43% among 200,000. Potency, µM, for inactives: max response, negative = inhibition, usual class: inhibitors. purified cruzain, Z-FR-AMC fluorescence, 0.01% Triton. P25779. AID 1478;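 note: plate controls were neutral wells for no effect and buffer without enzyme for full effect; nearly all actives have a fitted effect of over 40% in size; top concentration of the series not given in the record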
# Target sequence (P25779 123-467 limits assumed): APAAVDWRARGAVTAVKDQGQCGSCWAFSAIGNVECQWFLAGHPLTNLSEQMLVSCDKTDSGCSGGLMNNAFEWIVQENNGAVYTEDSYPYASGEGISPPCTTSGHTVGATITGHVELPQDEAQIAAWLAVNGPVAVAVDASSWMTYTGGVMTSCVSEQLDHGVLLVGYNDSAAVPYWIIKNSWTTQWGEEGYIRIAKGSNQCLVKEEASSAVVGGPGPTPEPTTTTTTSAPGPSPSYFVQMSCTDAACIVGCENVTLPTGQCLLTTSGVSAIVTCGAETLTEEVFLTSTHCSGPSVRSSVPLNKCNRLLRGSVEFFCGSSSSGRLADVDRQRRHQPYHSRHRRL
#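 Cruzain (1.5 nM) preincubated 15 min at RT with compound in 100 mM sodium acetate pH 5.5, 5 mM DTT, 0.01% Triton X-100. Reaction started with 2 uM Z-FR-AMC; AMC fluorescence (ex 360/em 450 nm) change over 60 s gave rate.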
# Cruzain noTriton: cruzain (T. cruzi) inhibition without detergent; Potency, µM, for inactives: max response, negative = inhibition, most hits filed as inhibitors; P25779; purified cruzain, Z-FR-AMC fluorescence, no detergent; hit rate 2.3% among 200,000;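 note: plate controls were enzyme without inhibitor for no effect and buffer without enzyme for full effect; nearly all actives have a fitted effect of over 40% in size; top concentration of the series not given in the record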
#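 Detergent-free condition (0.00005% Triton X-100) in acetate buffer pH 5.5 with DTT. 1.5 nM enzyme and compound were pre-mixed 15 min, then 2 uM Z-FR-AMC substrate added; reaction progress from fluorescence change between first and third reads (60 s).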
# StopGo reporter: lowers the luciferase signal of an FMDV 2A StopGo reporter. human cells with a luciferase reporter of 2A StopGo recoding; control for the full effect not named in the record. Potency, µM (top dose mostly 57.9 µM), for the others: at the highest dose signal change, negative = less light. hit rate 1.2% among 410,000; active = well fitted falling curve with a large enough effect; inconclusive = small, poorly fitted or top-dose-only effect; inactive = no such curve, though single readings can be large or run the other way; tested in HEK293T cells; note: % is set by controls: 0 for no effect and ±100 for the full control effect; nearly all actives have a fitted effect of over 45% in size; luciferase light after 4 h
# LASV entry inh: blocks Lassa virus binding to or entry into cells; Lassa virus pseudotype entry inhibition, cell reporter; control for the full effect not named in the record; Potency, µM (series often up to 37.9 µM), without a hit: at the top dose activity change, negative = inhibition, usual class: inhibitors; hit rate 1.2% among 300,000; AID 540256; active means well fitted inhibition curve with a large enough effect; inconclusive means small, poorly fitted or top-dose-only effect, or effect the other way; inactive means flat fitted curve, though single readings scatter; tested in HEK293 cells; note: % is set by controls: 0 for no effect and ±100 for the full control effect; nearly all actives have a fitted effect of over 50% in size; luciferase read-out
# NS1 inh: influenza NS1 inhibition; Potency, µM (series often up to 46.1 µM), without a hit: at the highest dose activity, positive = more growth; S. cerevisiae slowed by influenza A NS1, growth recovery by OD600; AID 2326; hit rate 0.4% among 270,000; active means well fitted rising curve with a large enough effect; inconclusive means small, poorly fitted or top-dose-only effect; inactive means no such curve, though single readings can be large or run the other way; note: nearly all actives have a fitted effect of over 50% in size
#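 A cell-based growth assay was used: compounds that relieve NS1-induced slow growth of budding yeast raise OD600. Assay medium was yeast nitrogen base with ammonium sulphate and -URA supplement, pH 6.0, with 2% galactose.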
# MARV entry inh: Marburg virus entry inhibition | Marburg virus pseudotyped entry inhibition, cell reporter; control for the full effect not named in the record; about a third of the inactives were read at about 46 µM | hit rate 1.8% among 300,000 | Potency, µM (top dose mostly 37.8 µM), inactives show top-dose activity change, negative = inhibition, usual class: inhibitors; active = well fitted inhibition curve with a large enough effect; inconclusive = small, poorly fitted or top-dose-only effect, or effect the other way; inactive = flat fitted curve, though single readings scatter; tested in HEK293 cells; about a fifth of its hits are not listed in these tables; note: % is set by controls: 0 for no effect and ±100 for the full control effect; luciferase read-out
# SARS PLP yeast: inhibitors of SARS-CoV papain-like protease in yeast | S. cerevisiae expressing SARS-CoV PLpro, growth rescue; control for the full effect not named in the record | hit rate 0.19% among 330,000 | Potency, µM (highest dose often 32.9 µM), inactives show at the highest dose activity, positive = growth rescue; active means well fitted rising curve with a large enough effect; inconclusive means small, poorly fitted or top-dose-only effect; inactive means no such curve, though single readings can be large or run the other way; note: 0% is about no effect; nearly all actives have a fitted effect of over 55% in size; growth read by luminescence after 48 h
# * marks the source's active call; other numbers are inactive results; ? = inconclusive; nt = no result given; [ ] = another dose, or the depositor's remark. Unless noted, calls come from the whole dose curve; as a rule, active = well fitted curve in the direction sought with a large enough effect; inconclusive = small, poorly fitted or top-dose-only effect, or another doubt; inactive = no such curve, though single readings can be large; an effect the other way counts as inactive or inconclusive. Potency is the fitted concentration of half-maximal effect.
SMILES,RE007 growth inh,Cruzain inh Det,Cruzain noTriton,StopGo reporter,LASV entry inh,NS1 inh,MARV entry inh,SARS PLP yeast
COc1ccc(OC2C(=O)N(c3ccc(F)cc3)C2c2ccc(OC)c(OC)c2)cc1 (centres undefined),16%,-2.4%,15%,nt,2%,-8%,-16%,0%
COc1ccc(S(=O)(=O)Cc2ccc(C(=O)NCc3cccnc3)o2)cc1,-1%,4.3%,-12%,?,nt,0%,nt,9%
CC(C)(C)c1ccc(OCc2cnc(Cl)s2)cc1,4%,nt,nt,16%,27%,0%,-1%[14.2 µM],2%
O=C1N=C(N2CCOCC2)S/C1=C/c1ccc(-c2ccccc2Cl)o1,-9%,-8.8%,?,15%,?,-4%,?,-1%
CCc1ccc(NC(=O)CCCc2nnc3n(C(C)CC)c(=O)c4sccc4n23)cc1 (centres undefined),nt,-2.7%,?,-15%,1%[46.1 µM],nt,nt,nt
C=CCOc1ccccc1CNc1ccc2[nH]c(=O)[nH]c2c1,-14%,nt,nt,?,-10%,1%,16%[46.1 µM],0%
O=S(=O)(c1cccc(S(=O)(=O)N2CCCC2)c1)N1CCCCC1,-2%,nt,nt,-11%,?,6%,0%[46.1 µM],-3%
C/C(CC(=O)Nc1ccccn1)=N\NC(=O)C(=O)Nc1cccc(C)c1,-11%,4.6%,0%,-4%,-2%,-28%,-19%,-6%
COc1ccc(C(=O)NNC(=O)CCc2ccccc2OC)cc1,0%,nt,nt,20%,-3%[46.1 µM],7%,4%[46.1 µM],7%
COc1cccc(CNC(=O)c2ccc3c(c2)S(=O)(=O)N=C2CCCCCN23)c1,9%,nt,nt,-17%,2%,-4%,15%,-3%
CC(NC(=O)COC(=O)C1CSC2(C)CCC(=O)N12)C12CC3CC(CC(C3)C1)C2 (centres undefined),-6%,nt,nt,5%,8%,-2%,-15%,2%
COc1ccc(/C=N/N=C2\SC(CC(=O)O)C(=O)N2c2ccccc2)c(OC)c1 (centres undefined),3%,-13%,11%,-12%,24%,-8%,10%,-10%
Cc1cccc(-c2nc(C)c(CCNC(=O)C(=O)Nc3c(C)cc(C)cc3C)s2)c1,nt,-0.9%,-9%,-18%,1%[46.1 µM],nt,nt,nt
[O-]/C(=C(\C(=S)Nc1ccc(SC(F)F)cc1)[n+]1cccc(CO)c1)c1ccc(Cl)s1,0%,nt,nt,17%,6%,nt,29%[46.1 µM],0%
O=C(O)C(=O)Cc1c[nH]c2ccccc12,8%,-7.7%,-9%,-3%,-1%,4%,-1%,-12%
O=C(Nc1nnc(CSCc2ccc(F)cc2)s1)c1cccc([N+](=O)[O-])c1,11%,-7.5%,-10%,40µM*,-24%,-5%,-17%,-8%
CC(=O)N1CCN(C(=O)c2cccc(S(=O)(=O)N3c4ccccc4CC3C)c2)CC1 (centres undefined),49%,nt,nt,4%,-24%[46.1 µM],nt,1%[46.1 µM],-4%
Oc1ccc(-c2nnc(-c3ccc(O)cc3)nn2)cc1,11%,2.0%,-2%,?,?,6%,?,1%
COc1ccc(-n2c(=O)c3c4c(sc3n(Cc3ccccc3)c2=O)CCC4)c(OC)c1,nt,-5.5%,7%,-25%,?,nt,?,nt
CC(=O)N(C(C)=O)c1c(N2CCCC2)c2ccccc2oc1=O,-2%,nt,nt,-7%,-2%,3%,2%[46.1 µM],0%
COc1ccccc1NC(=O)CCSCCC(=O)Nc1ccccc1OC,13%,-7.6%,-19%,0%,-17%,5%,7%,8%
O=C(Cc1ccc(Cl)cc1)NC(=S)Nc1ccccc1O,1%,nt,nt,9%,nt,5%,nt,-5%
Cc1c(OCC(=O)N2CCC(C(N)=O)CC2)ccc2c1oc(=O)c1ccccc12,-4%,nt,nt,-2%,nt,9%,nt,0%
CCOC(=O)C1=C(CC)OC(N)=C(C#N)C1c1ccc(OC)c(C)c1OC (centres undefined),-4%,-6.7%,15%,-24%,4%,-9%,1%,?
CCNS(=O)(=O)c1ccc(NC(=S)NCC2CCCO2)cc1 (centres undefined),15%,nt,nt,4%,-14%,1%,3%[46.1 µM],2%
Cc1noc2ncnc(NCc3ccccc3Cl)c12,nt,-1.9%,-9%,?,?,nt,nt,nt
COc1ccc(CCNC(=O)CSc2nc(N)cc(=O)[nH]2)cc1OC,-1%,nt,nt,-9%,-1%,6%,1%[46.1 µM],1%
Cc1ccc(SCCNC(=S)Nc2cc(C)cc(C)c2)cc1,4%,?,-18%,9%,-5%,-110%,-5%,8%
CCC(=O)Nc1ccc(Cl)c(NC(=S)NC(=O)c2cc3ccccc3o2)c1,-13%,-5.3%,?,-16%,-13%,?,-8%,1%
Cc1cc(Br)ccc1OCCN1CCCC1,1%,nt,nt,-2%,nt,12%,nt,2%
Cc1ccn(C(=O)c2cc3ccccc3oc2=O)n1,nt,-4.5%,0%,nt,nt,-11%,1%,13%
CN1CCN(S(=O)(=O)c2ccc(N3CCc4ccccc4C3)nc2)CC1,-17%,nt,nt,-11%,11%,nt,?,0%
FC(F)(F)c1cnc2c(-c3ccc(Cl)cc3Cl)noc2c1,-4%,-2.3%,-5%,6%,0%,3%,20%,-6%
CCOc1ccc(NC(=O)c2c(NC(=O)c3ccco3)sc3c2CCC(C(C)(C)C)C3)cc1 (centres undefined),nt,-0.7%,5%,14%,1%[46.1 µM],nt,25%[46.1 µM],nt
O=C(Nc1ccc(C(=O)N2CCCCC2)cc1)c1cccc([N+](=O)[O-])c1,-14%,nt,nt,-11%,-1%,0%,-10%,-4%
CCc1c(C(=O)Nc2ncn(Cc3cccc(C)c3)n2)csc1C,6%,0.5%,-4%,-15%,6%,-15%,17%,7%
CC1CC(C)(O)CC(C(O)CC2CC(=O)NC(=O)C2)C1=O (centres undefined),?,nt,nt,?,0.4µM*,nt,0.1µM*,nt
CCN1CCN(c2ccc(S(=O)(=O)N3CCCCC3)cc2NC(=O)/C=C/c2ccc(Cl)cc2)CC1,19%,nt,nt,-19%,18µM*,nt,nt,nt
COc1cc(C(=O)Nc2ccccc2OCc2cc(=O)n3c(C)csc3n2)cc(OC)c1OC,nt,0.3%,3%,-23%,17%[46.1 µM],nt,19%[46.1 µM],nt
COc1ccccc1C(=O)NCC(=O)OCC(=O)N(CC(C)C)c1c(N)n(Cc2ccccc2)c(=O)[nH]c1=O,4%,nt,nt,-13%,-7%,nt,2%,-8%

# Full records from above. Values in the order: RE007 growth inh | Cruzain inh Det | Cruzain noTriton | StopGo reporter | LASV entry inh | NS1 inh | MARV entry inh | SARS PLP yeast
# Record of O=C(Nc1ccc(C(=O)N2CCCCC2)cc1)c1cccc([N+](=O)[O-])c1 = -14% | nt | nt | -11% | -1% | 0% | -10% | -4%
# Record of COc1ccc(OC2C(=O)N(c3ccc(F)cc3)C2c2ccc(OC)c(OC)c2)cc1 (centres undefined) = 16% | -2.4% | 15% | nt | 2% | -8% | -16% | 0%
# Record of COc1cc(C(=O)Nc2ccccc2OCc2cc(=O)n3c(C)csc3n2)cc(OC)c1OC = nt | 0.3% | 3% | -23% | 17%[46.1 µM] | nt | 19%[46.1 µM] | nt

# Further compounds follow.
SMILES,RE007 growth inh,Cruzain inh Det,Cruzain noTriton,StopGo reporter,LASV entry inh,NS1 inh,MARV entry inh,SARS PLP yeast
O=C(NCCN1CCOCC1)c1ccccc1N1C(=O)[C@@H]2Cc3c([nH]c4ccccc34)C(c3ccccc3)N2C1=O (some centres undefined),-8%,nt,nt,-14%,nt,-19%,nt,6%
Cc1ccc(Nc2c([N+](=O)[O-])c(=O)oc3ccccc23)cc1C,1%,nt,nt,-9%,?,-4%,?,-4%
COCCCNC(=S)N/N=C/c1ccc(O)cc1O,-24%,nt,nt,-2%,-16%,2%,17%[14.2 µM],-3%
CCCC(C)C(=O)Nc1ccc(Cl)cn1 (centres undefined),-8%,-2.8%,-2%,26%,0%,6%,18%,1%
COc1ccc(NCc2cc3cc4c(cc3n(CC(=O)Nc3ccc(F)cc3F)c2=O)OCO4)cc1,nt,-5.0%,?,30%,7%[46.1 µM],nt,nt,nt
CN(C)c1ccc(CN(Cc2ccco2)C(=O)COc2ccc(F)cc2)cc1,nt,-6.4%,?,0%,5.6µM*,nt,?,nt
Cc1cc(C)nc(-n2nc(C)cc2NC(=O)c2ccc3c(c2)OCO3)n1,nt,-0.2%,2%,nt,nt,6%,1%,-1%
C=CCn1c(SCC(=O)c2c(N)n(C3CC3)c(=O)[nH]c2=O)nnc1-c1ccoc1C,9%,nt,nt,-3%,14%,nt,30%,2%
CC(=O)c1ccc(NC(=O)N2C[C@H]3C[C@@H](C2)c2cccc(=O)n2C3)cc1,-3%,nt,nt,-16%,nt,9%,nt,2%
COc1ccccc1C(c1nnnn1Cc1ccccc1)N1CCN(c2nc3ccccc3s2)CC1 (centres undefined),33%,0.6%,-65%,-25%,?,10%,?,-4%
O=C(Nc1nc2ccc(Cl)cc2s1)c1cc(=O)c2ccccc2o1,nt,-2.7%,-5%,29%,?,nt,9%[46.1 µM],nt
CN1CCN(S(=O)(=O)c2ccc(NC(=O)c3ccc(F)cc3Cl)cc2)CC1,9%,nt,nt,-11%,0%,-2%,2%,-2%
COc1cc(Cl)nn(-c2ccccc2)c1=O,8%,0.7%,9%,-1%,-6%,23%,?,-1%
CC(=O)N1CCc2cc(S(=O)(=O)NCCCN3CCCCC3)ccc21,-10%,nt,nt,14%,-3%[46.1 µM],9%,-23%[46.1 µM],-1%
CC(C)(C)Nc1nc(Oc2ccc(=O)[nH]n2)nc(N2CCOCC2)n1,-17%,nt,nt,-10%,1%,nt,3%[46.1 µM],1%
CC(O)c1cccc(NC2=CC(=O)CC(C)(C)C2)c1 (centres undefined),-10%,-1.3%,1%,-5%,-14%,12%,5%,0%
Cc1ccc(OCCCCNC(C)(C)C)c([N+](=O)[O-])c1,-6%,-3.3%,-5%,-21%,-1%,2%,16µM*,5%
CN1C(=O)C(CC(=O)Nc2ccc(F)cc2)N(Cc2cccs2)C1=S (centres undefined),8%,nt,nt,5%,?,2%,?,0%
